Screening data deposited in PubChem by Broad Institute.
MLL AF4-AF9 inh: inhibitors of human MLL-AF4/AF9 interaction. P42568. inhibition, % at 10 µM. AlphaScreen, biotin-AF4 peptide binding to FLAG-AF9. AID 651704. 350,000 compounds, 0.47% hits;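 active = every replicate reaching a set inhibition limit, whatever the replicate mean, cut at about 25% in these data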;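 also: 0% = plate neutral control median and 100% = total signal loss; the record names both 10 and 1 µM as test concentration; the first replicate is given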
Target sequence (P42568 whole entry, looked up): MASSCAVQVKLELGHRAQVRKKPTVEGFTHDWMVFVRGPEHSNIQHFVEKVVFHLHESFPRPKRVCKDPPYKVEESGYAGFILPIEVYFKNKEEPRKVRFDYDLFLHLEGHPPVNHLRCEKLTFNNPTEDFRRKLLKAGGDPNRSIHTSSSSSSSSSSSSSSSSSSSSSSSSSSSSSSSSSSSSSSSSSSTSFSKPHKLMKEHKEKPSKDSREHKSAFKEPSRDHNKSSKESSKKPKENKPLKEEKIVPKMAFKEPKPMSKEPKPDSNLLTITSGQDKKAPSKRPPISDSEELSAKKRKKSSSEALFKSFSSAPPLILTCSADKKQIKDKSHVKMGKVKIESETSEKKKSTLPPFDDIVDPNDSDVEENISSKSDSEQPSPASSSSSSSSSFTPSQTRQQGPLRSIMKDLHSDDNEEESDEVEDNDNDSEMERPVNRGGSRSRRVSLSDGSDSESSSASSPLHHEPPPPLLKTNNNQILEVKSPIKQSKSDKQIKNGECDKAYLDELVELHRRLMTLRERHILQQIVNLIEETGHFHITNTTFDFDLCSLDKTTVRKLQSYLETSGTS
Numbers without * were called inactive; & = joins results of further samples.

MLL AF4-AF9 inh | molecule
-1.4 | C[C@H]1CN([C@@H](C)CO)C(=O)c2cc(C#CCN(C)C)cnc2O[C@H]1CN(C)C(=O)c1ccc(F)cc1
-1.8 | O=C1c2ccccc2C(c2nnnn2-c2ccc3c(c2)OCCO3)N1CCCn1ccnc1 (stereo not given)
4.0 | Cc1ccc(F)cc1S(=O)(=O)N[C@@H]1CCN(Cc2ccc(OC(C)C)cc2)C1
3.5 | Cc1ccc(S(=O)(=O)N(C)C[C@@H]2Oc3c(NC(=O)c4nc5ccccc5s4)cccc3C(=O)N([C@@H](C)CO)C[C@@H]2C)cc1
0.9 | C[C@H](CO)N1C[C@H](C)[C@@H](CN(C)C(=O)Nc2ccccc2)Oc2ncc(C#CC3CCCC3)cc2C1=O
-0.5 | COC(=O)C[C@@H]1CC[C@H]2[C@@H](COc3ccc(NC(=O)c4cccc(Cl)c4)cc3C(=O)N2C)O1
5.1 | CN(C)C(=O)c1ccc(-c2ccc([C@H]3[C@H](C#N)N(C(=O)C4CCC4)[C@H]3CO)cc2)cc1
1.7 | COc1ccc(-c2ccc(C(=O)NCCN3CCOCC3)c3occc23)c(C)c1
-0.1 | COc1ccc2c3c([nH]c2c1)[C@H](CO)N(C(=O)c1ccc(F)cc1)CC31CCN(C(=O)CC2CC2)CC1
-5.5 | COc1ccc([Si](C)(C)[C@@H]2[C@@H](CCn3cc([C@H](O)c4ccccc4)nn3)O[C@]3(C(=O)N(Cc4ccc(N5CCC5=O)cc4)c4ccccc43)[C@H]2C)cc1
0.5 | C[C@@H]1CN([C@@H](C)CO)C(=O)c2cc(NS(=O)(=O)c3ccccc3)ccc2O[C@@H]1CN(C)C
-0.4 | CCCNC(=O)Nc1ccc2c(c1)C(=O)N(C)C[C@H](OC)[C@H](C)CN(Cc1cccnc1)[C@H](C)CO2
-2.9 | COc1ccc(-c2ccc([C@H]3[C@H](CO)N[C@@H]3C#N)cc2)cc1
-0.8 | COC(=O)c1ccc2nc(-c3ccc(F)cc3)c(Cc3ccc(OC)cc3C)n2c1
1.7 | Cc1ccc(S(=O)(=O)N(C)C[C@H]2Oc3c(NC(=O)c4nc5ccccc5s4)cccc3C(=O)N([C@@H](C)CO)C[C@H]2C)cc1
-1.0 | COc1ccc2c3c(n(C)c2c1)[C@@H](CO)N(C)CC31CCN(C(=O)Nc2cccc(F)c2)CC1
-4.8 | C/C=C/c1cnc2c(c1)C(=O)N([C@@H](C)CO)C[C@H](C)[C@H](CN(C)C(=O)NC1CCCCC1)O2
-0.3 | CN1C(=O)c2cc(NC(=O)Nc3ccccc3)ccc2OC[C@H]2O[C@@H](CC(=O)NC3CCC3)CC[C@H]21
-3.0 | C[C@H](CO)N1C[C@H](C)[C@H](CN(C)C)Oc2cc(-c3cccnc3)ccc2S1(=O)=O
0.9 | Cc1ccc(S(=O)(=O)Nc2ccc3c(c2)C(=O)N([C@@H](C)CO)C[C@@H](C)[C@@H](CN(C)C(=O)Nc2cccc4ccccc24)OCCCC[C@H](C)O3)cc1
1.7 | O=C(CC1CC1)N1CC2(C1)[C@H](c1ccccc1)[C@H](CO)N2S(=O)(=O)Cc1ccccc1
-2.1 | COc1ccc2c3c(n(C)c2c1)[C@H](CO)N(C(=O)CC1CC1)CC31CCN(C(=O)NC(C)C)CC1
10 | C[C@@H]1CN([C@H](C)CO)S(=O)(=O)c2ccc(-c3ccccc3)cc2O[C@H]1CN(C)Cc1cccnc1
-3.3 | C[C@@H]1CCCCO[C@@H](CN(C)C(=O)Nc2cccc3ccccc23)[C@H](C)CN([C@@H](C)CO)C(=O)c2cc(NC(=O)CCCN(C)C)ccc2O1
0.7 | O=C1CCCC2=C1C1(CCCC1)N=C(Nc1nc3ccccc3o1)N2

7 entries already listed, ordered by the number in MLL AF4-AF9 inh, ascending:
MLL AF4-AF9 inh | molecule
-3.3 | C[C@@H]1CCCCO[C@@H](CN(C)C(=O)Nc2cccc3ccccc23)[C@H](C)CN([C@@H](C)CO)C(=O)c2cc(NC(=O)CCCN(C)C)ccc2O1
-2.9 | COc1ccc(-c2ccc([C@H]3[C@H](CO)N[C@@H]3C#N)cc2)cc1
-1.8 | O=C1c2ccccc2C(c2nnnn2-c2ccc3c(c2)OCCO3)N1CCCn1ccnc1 (stereo not given)
0.5 | C[C@@H]1CN([C@@H](C)CO)C(=O)c2cc(NS(=O)(=O)c3ccccc3)ccc2O[C@@H]1CN(C)C
0.9 | Cc1ccc(S(=O)(=O)Nc2ccc3c(c2)C(=O)N([C@@H](C)CO)C[C@@H](C)[C@@H](CN(C)C(=O)Nc2cccc4ccccc24)OCCCC[C@H](C)O3)cc1
1.7 | O=C(CC1CC1)N1CC2(C1)[C@H](c1ccccc1)[C@H](CO)N2S(=O)(=O)Cc1ccccc1
5.1 | CN(C)C(=O)c1ccc(-c2ccc([C@H]3[C@H](C#N)N(C(=O)C4CCC4)[C@H]3CO)cc2)cc1

Continued.
MLL AF4-AF9 inh | molecule
-0.8 | C[C@@H](NC(=O)[C@H]1[C@H](CO)[C@H]2Cn3c(cccc3=O)[C@H]2N1C(=O)C1CC1)c1ccccc1
-4.1 | CCCNC(=O)N1C[C@@H](O)COC[C@@H]2O[C@H](CC(=O)N3CCOCC3)CC[C@H]21
2.5 | O=C(c1ccccc1)N1CC(=O)N2[C@H](CO)[C@H](c3ccc(C#CCC4CCCC4)cc3)[C@H]2C1
-4.0 | CCNC(=O)C[C@H]1C=C[C@H](NS(=O)(=O)c2ccc(F)cc2)[C@H](CO)O1
-1.3 | O=C(c1cccc(F)c1)N1CCCCN2[C@H](C1)[C@H](c1ccc(C#CC3(O)CCCC3)cc1)[C@@H]2CO
1.1 | C[C@@H]1CN([C@H](C)CO)C(=O)Cc2cc(NC(=O)CCN3CCOCC3)ccc2O[C@@H]1CN(C)CC1CCCCC1
0.3 | CCNC(=O)[C@@H]1[C@@H](CO)[C@@H]2Cn3c(ccc(-c4cccnc4)c3=O)[C@H]1N2Cc1ccccc1
6.3 | CC(C(=O)N1CCc2ccccc21)N1CCN(S(=O)(=O)c2ccc3c(c2)OCCCO3)CC1 (stereo not given)
2.3 | C[C@@H]1CN([C@H](C)CO)C(=O)c2cc(C#CCN(C)C)cnc2O[C@@H]1CN(C)Cc1cccc(F)c1
-9.9 | COc1ccc(S(=O)(=O)Nc2ccc3c(c2)C(=O)N([C@H](C)CO)C[C@@H](C)[C@@H](CN(C)C(=O)CCCN(C)C)OCCCC[C@@H](C)O3)cc1
1.5 | C[C@H]1CCCCO[C@H](CN(C)C(=O)CCC(F)(F)F)[C@@H](C)CN([C@@H](C)CO)C(=O)c2cc(NC(=O)Cc3ccccc3)ccc2O1
-2.9 | CCC(=O)N1[C@@H]2Cn3c(ccc(-c4ccccc4F)c3=O)[C@H]1[C@@H](C(=O)NC1CCCC1)[C@@H]2CO
-3.0 | O=C(C[C@@H]1C[C@H]2c3cc(NS(=O)(=O)c4ccccc4)ccc3O[C@H]2[C@H](CO)O1)N1CCCCC1
0.3 | O=C(c1ccncc1)N1C[C@@H]2[C@H](c3ccccc31)[C@H](CO)N2C(=O)Nc1ccc(F)cc1
-1.7 | COc1ccc2c3c([nH]c2c1)[C@@H](CO)N(Cc1ccccc1Cl)CC31CCN(C(=O)C2CC2)CC1
-9.0 | COC(=O)c1ccc(N2C(c3cc(OC)cc(OC)c3)=Cc3ccc(-c4ccc(C(N)=O)cc4)cc3C2CC(=O)C2CC2)cc1 (stereo not given)
2.5 | O=C1N[C@@H](c2ccccc2)COC(=O)[C@@H](Cc2ccc(F)cc2)CC/C=C/C[C@H]1CC(=O)N(CCO)Cc1ccccc1
-10 | CCCNC(=O)[C@H]1[C@H](CO)[C@H]2Cn3c(ccc(/C=C/c4ccccc4)c3=O)[C@@H]1N2C(=O)c1ccccc1
5.4 | C/C=C/c1ccccc1[C@@H]1[C@@H](C#N)N(c2nc(CC)cs2)[C@@H]1CO
1.7 | Cc1ccc(S(=O)(=O)N(C)C[C@@H]2OCc3ccccc3-c3ccccc3C(=O)N([C@@H](C)CO)C[C@@H]2C)cc1
-0.1 | C[C@H](CO)N1C[C@H](C)[C@@H](CN(C)S(=O)(=O)c2ccc(F)cc2)Oc2c(NC(=O)Nc3cccc4ccccc34)cccc2C1=O
-0.4 | O=C(CCN1CCCCC1)N[C@H]1CC[C@@H](CCNS(=O)(=O)c2ccccc2)O[C@@H]1CO
-0.1 | O=C(N[C@H]1C[C@@H]2O[C@@H](CO)CC[C@@H]2O[C@@H]1CCc1ccc(C#CC2CC2)cc1)c1cccc(F)c1
-0.1 | Cc1cc(C(=O)Nc2ccc3c(c2)C(=O)N(C)[C@@H]2CC[C@@H](CC(=O)NCC(F)(F)F)O[C@H]2CO3)no1
-1.5 | COC(=O)[C@@]1(Cc2ccc(F)cc2)[C@H]2c3cc(C(=O)N4CCCC4)n(CCc4ccc(OC)c(Br)c4)c3C[C@H]2CN1C(=O)c1ccccc1
36* | C[C@H](CO)N1C[C@H](C)[C@H](CN(C)CC2CC2)OCCCC[C@H](C)Oc2ccc(NC(=O)Nc3ccc4c(c3)OCO4)cc2C1=O
1.1 | COCC(=O)N(C)C[C@@H]1Oc2cc(-c3cccnc3)ccc2S(=O)(=O)N([C@@H](C)CO)C[C@H]1C
-2.4 | COc1ccc(-c2cc(=O)c3cccc(CC(=O)O)c3o2)cc1
-2.7&-3.5 | Cc1noc(C)c1NC(=O)N(C)C[C@H]1OCc2cn(nn2)CCCC(=O)N([C@H](C)CO)C[C@@H]1C
-0.6 | Cc1noc(C)c1S(=O)(=O)Nc1ccc2c(c1)C(=O)N([C@@H](C)CO)C[C@@H](C)[C@@H](CN(C)C(=O)NC1CCCCC1)OCCCC[C@@H](C)O2
-1.8 | COc1ccc(S(=O)(=O)N(C)C[C@@H]2OCCCC[C@@H](C)Oc3ccc(NS(=O)(=O)c4ccc(F)cc4)cc3C(=O)N([C@H](C)CO)C[C@@H]2C)cc1
0.9 | CN1C(=O)c2cc(NC(=O)c3ccc(F)cc3)ccc2OC[C@@H]2O[C@@H](CC(=O)NCC3CC3)CC[C@H]21
1.8 | O=C(COC(=O)c1c[nH]c2ccccc12)NCc1ccccc1
-1.1 | COc1ccc(S(=O)(=O)N(C)C[C@@H]2Oc3ccc(NC(=O)CCCCCC(=O)Nc4ccccc4N)cc3CC(=O)N([C@H](C)CO)C[C@H]2C)cc1
-3.2 | O=C(C[C@H]1CC[C@H]2[C@@H](COC[C@@H](O)CN2C(=O)Nc2cccc(Cl)c2)O1)N1CCCCC1
0.1 | CO[C@@H]1CN(C)C(=O)c2cc(NC(=O)C3CCCCC3)ccc2OC[C@H](C)N(Cc2cccnc2)C[C@@H]1C
9.8&-12 | Cc1cccc(-c2ccc(C3[C@@H]4CN(C(=O)C5CCCC5)C[C@H]3N4)cc2)c1 (stereo not given in full)
-1.2 | CO[C@@H]1CN(C)C(=O)c2cc(NS(=O)(=O)c3ccc(C)cc3)ccc2OC[C@H](C)NC[C@@H]1C
1.7 | C[C@@H]1CN([C@@H](C)CO)C(=O)Cc2cc(NC(=O)Cn3cnnn3)ccc2O[C@@H]1CN(C)Cc1ccccc1
-2.8 | C[C@H]1CN([C@@H](C)CO)C(=O)c2cc(C3=CCCCC3)cnc2O[C@H]1CN(C)Cc1cccnc1
0.6 | FC(F)(F)c1cc(Cl)c2nc(-c3ccccc3)c(Cc3cccc(Cl)c3)n2c1
3.3 | COc1ccc(S(=O)(=O)N(C)C[C@@H]2OCCCC[C@@H](C)Oc3ccc(NC(=O)Nc4c(C)noc4C)cc3C(=O)N([C@@H](C)CO)C[C@@H]2C)cc1
-0.5 | C[C@@H]1CCCCO[C@H](CN(C)S(=O)(=O)c2ccc(Cl)cc2)[C@H](C)CN([C@H](C)CO)C(=O)c2cc(NC(=O)CCC(F)(F)F)ccc2O1
-42 | CCCCOc1ccccc1-c1ccccc1CN1[C@@H](C(C)C)COCCS1(=O)=O
-3.7 | C#CCOCCOCCOCCNc1nc(N2CCN(C(=O)[C@H]([C@@H](C)CC)n3cc(CCC(=O)O)nn3)CC2)nc(N2CCN(C(=O)[C@H](CCCCN)n3cc(CCCC)nn3)CC2)n1
-6.0 | C[C@H](CO)N1C[C@H](C)[C@H](CN(C)CC2CC2)Oc2c(NC(=O)C3CC3)cccc2C1=O
0.4 | O=C(C[C@@H]1C[C@@H]2c3cc(NC(=O)Nc4ccccc4F)ccc3O[C@@H]2[C@H](CO)O1)NCC1CC1
-0.9 | CC(=O)N1[C@@H]2c3cccc(=O)n3C[C@@H]2[C@@H](CO)[C@@H]1C(=O)NC1CCCCC1
-0.7 | Cc1ccc(S(=O)(=O)N[C@H]2CC[C@H](CCNC(=O)c3ccc4c(c3)OCO4)O[C@H]2CO)cc1
-0.3 | COc1ccccc1S(=O)(=O)N[C@@H]1CC[C@@H](CCNC(=O)C2CC2)O[C@@H]1CO

Further structures follow.
MLL AF4-AF9 inh | molecule
-2.7 | OC[C@@H]1CN(Cc2ccc(F)cc2)C[C@H](n2cnc3c(NCc4ccncc4)ncnc32)O1
-0.4 | O=C(NCc1cccnc1)c1ccc2sc([C@H]3C[C@H](O)[C@@H](CO)O3)nc2c1
-0.1 | C[C@@H]1CN([C@H](C)CO)C(=O)c2cc(C3=CCCCC3)cnc2O[C@H]1CN(C)C(=O)Nc1ccccc1
-2.4 | COCCNC(=O)C[C@H]1CC[C@H]2[C@@H](COC[C@H](O)CN2S(=O)(=O)c2ccccc2C)O1
3.8 | COc1ccc(Br)c(Cn2c(C)c(C(=O)NCc3ccc4c(c3)OCCO4)sc2=O)c1
2.1 | C/C=C/c1cnc2c(c1)C(=O)N([C@H](C)CO)C[C@@H](C)[C@H](CN(C)S(=O)(=O)c1ccccc1)O2
7.1 | CN=C(C[N+](=O)[O-])NCCSCc1ccc(CN(C)C)o1
-0.6 | O=C(c1ccccn1)N1C[C@H]2[C@@H](c3ccccc31)[C@H](CO)N2C(=O)Nc1ccccc1

This is a subset (hit frequency here may not be typical).
